Vaccinia mCherry: inhibitors of vaccinia virus infection (mCherry reporter signal); Vaccinia virus mCherry reporter infection, fluorescence; about a quarter of the inactives have no number; Potency, µM (highest dose often 36.5 µM), for inactives: at the highest dose activity change, negative = inhibition, usual class: inhibitors; 310,000 compounds, 0.63% hits; AID 720579; active = well fitted inhibition curve with a large enough effect; inconclusive = small, poorly fitted or top-dose-only effect; inactive = no such curve, though single readings can be large or run the other way; tested in A549 cells; also: nearly all actives have a fitted effect of over 35% in size; inactives centre near -10
VACV Venus inh: vaccinia inhibition (Venus reporter) | Vaccinia virus Venus reporter expression, fluorescence | Potency, µM (highest dose often 36.5 µM), inactives show top-dose activity change, negative = inhibition, actives largely listed as inhibitors | 330,000 compounds, 0.46% hits | AID 720580; active means well fitted inhibition curve with a large enough effect; inconclusive means small, poorly fitted or top-dose-only effect; inactive means no such curve, though single readings can be large or run the other way; tested in A549 cells; also: nearly all actives have a fitted effect of over 30% in size; inactives centre near -10
Starred values were filed as active, the others as inactive; i = inactive; ? = inconclusive; . = not tested or not shown; & = joins results of further samples; [ ] = dose if it differs, or a comment. % is scaled to controls: 0 for no effect and ±100 for the full control effect; potency is read from the fitted curve at half-maximal effect. No enrichment for hits. Share with any hit: about 0.88%.

nr | smiles | Vaccinia mCherry | VACV Venus inh
1 | COc1ccc(Cl)cc1NC(=O)CN1CCN(S(=O)(=O)N2CCC(C)CC2)CC1 | -17% | -14%
2 | COc1ccc(N2C(=O)C3CC=C(Cl)CC3C2=O)cc1 (stereo not drawn) | -5% | -6%
3 | Nc1ccc(S(=O)(=O)c2ccc(NC(=O)c3cccnc3)cc2)cc1 | -15% | -21%
4 | CCn1cc([N+](=O)[O-])c(C(=O)N2CCOCC2)n1 | -20% | -3%
5 | CCn1nc(C)c(C(=O)Nc2cc(Oc3cc(C)cc(C)c3)cc([N+](=O)[O-])c2)c1C | ? | ?
6 | CS(=O)(=O)N1N=C(c2cccs2)CC1c1ccc(Cl)o1 (stereo not drawn) | -1% | -19%
7 | CCOc1ccc(-c2nnc(SCC(=O)NC(C)CC)nc2-c2ccc(OCC)c(OC)c2)cc1OC (stereo not drawn) | -12% | -9%
8 | COc1ccccc1-c1ccc(=O)n(CC(=O)NCc2ccco2)n1 | -1% | -8%
9 | O=C(/C=C1\OCc2cc(OCc3ccccc3)ccc21)OCc1ccccc1 | 1% | -8%
10 | CCOC(=O)c1ccc(S(=O)(=O)N2CCC(C(=O)OCC)CC2)cc1 | i | -12%
11 | Cc1cc(C)c(C#N)c(N2CCOCC2)n1 | . | -28%
12 | CCN(CC)C(=O)c1cc(-c2ccccc2OC)on1 | -12% | -2%
13 | O=S(=O)(c1cccs1)N1CCCc2cccc(O)c21 | -22% | -26%
14 | COc1ccc(NC(=O)c2ccc3nc(C(C)C)oc3c2)cc1OC | -2% | -11%
15 | Cn1c(=O)n(C)c2cc(NS(=O)(=O)c3ccc(C(C)(C)C)cc3)c(NCc3ccccc3)cc21 | -8% | -24%
16 | CCN(CC)C(=O)Cn1cnc2sc(C(=O)NCCCN3CCOCC3)c(C)c2c1=O | -11% | 1%
17 | CCc1ccc(N(C(=O)c2csnn2)C(C(=O)NC2CCCCC2)c2ccncc2)cc1 (stereo not drawn) | -4% | 4%
18 | Cc1ccccc1NC(=O)CN1C(=O)S/C(=C\c2ccc(-c3cccc(C(=O)O)c3C)o2)C1=O | 7% | 3%
19 | CC1c2ccccc2N(NC(=O)Cc2ccccc2)C1C (stereo not drawn) | i | -12%
20 | COc1ccc(NC(=O)N(C2CCCCC2)C(C)c2ccco2)c(OC)c1 (stereo not drawn) | -6% | -4%
21 | Cc1cccc(C)c1NC(=O)CN1CCN(C(=O)C2CCC2)CC1 | -15% | 2%
22 | CCOC(=O)N1CCN(C(c2ccc(Cl)cc2)c2sc3nc(C)nn3c2O)CC1 (stereo not drawn) | i | -19%
23 | COc1cccc(Nc2nc(-c3cccs3)nc3ccccc23)c1 | -18% | ?
24 | CCN(CC)S(=O)(=O)c1ccc(C(=O)Nc2nc3ccc(Cl)cc3s2)cc1 | -11% | -3%
25 | CCNc1nc(NCC)nc(SCCOC(=O)COc2ccc(Cl)cc2Cl)n1 | -26% | 1%
26 | CC(=O)N/N=C(\C)CC(=O)Nc1cccc2c1CCCC2 | 4% | -3%
27 | Cc1ccc(-c2nc3ccccn3c2Nc2ccccc2C)o1 | i | -18%
28 | COc1c2c(cc3c1C(CC(O)Cc1ccccc1)N(C)CC3)OCO2 (stereo not drawn) | -20% | -14%
29 | O=C(NC1CCCCC1)c1cc(S(=O)(=O)N2CCN(c3ccccc3)CC2)ccc1Cl | i | 4%
30 | CCN(CC)c1nc2c(s1)C(=O)CC(C)(C)C2 | -12% | -2%

Brought forward from above: five compounds; new compounds follow.
nr | smiles | Vaccinia mCherry | VACV Venus inh
26 | CC(=O)N/N=C(\C)CC(=O)Nc1cccc2c1CCCC2 | 4% | -3%
27 | Cc1ccc(-c2nc3ccccn3c2Nc2ccccc2C)o1 | i | -18%
28 | COc1c2c(cc3c1C(CC(O)Cc1ccccc1)N(C)CC3)OCO2 (stereo not drawn) | -20% | -14%
29 | O=C(NC1CCCCC1)c1cc(S(=O)(=O)N2CCN(c3ccccc3)CC2)ccc1Cl | i | 4%
30 | CCN(CC)c1nc2c(s1)C(=O)CC(C)(C)C2 | -12% | -2%
31 | Cc1ccc(-n2ncc3c(Nc4c(C)n(C)n(-c5ccccc5)c4=O)ncnc32)c(C)c1 | i | -10%
32 | CN(C1CCCCC1)S(=O)(=O)c1ccc2c(c1)c(=O)c(C(=O)N1CCN(c3ccccc3)CC1)cn2C | -10% | 5%
33 | COc1ccc(S(=O)(=O)NCC(c2cccs2)S(=O)(=O)c2ccccc2)cc1OC (stereo not drawn) | -9% | -11%
34 | Cc1ccc(S(=O)(=O)N2CCC(=O)N(CCOCc3cccc(Cl)c3)CC2)cc1 | -10% | -20%
35 | CC[N+]1(C)C2CCC1CC(OC(=O)[C@H]1CCC(C(=O)OC3CC4CCC(C3)[N+]4(C)CC)(c3ccccc3)c3ccccc31)C2 (stereo partly drawn) | -6% | -7%
36 | O=C(C[C@@H]1C/C=C\C[C@@H](Cc2ccc(F)cc2)C(=O)OCCNC1=O)N[C@H](CO)Cc1ccccc1 | -5% | -30%
37 | Cc1cccc(NC(=O)Cc2c(F)cccc2Cl)n1 | i | -6%
38 | COc1cccc(C2=CC(c3ccc(OC)c(OC)c3OC)n3ncnc3N2)c1 (stereo not drawn) | -19% | -1%
39 | Cc1ccccc1CSc1cn(CC(=O)N2CCCCC2)c2ccccc12 | -15% | -10%
40 | CN1CCN(C(=S)c2ccc(-c3cccc(Cl)c3Cl)o2)CC1 | ? | -29%
41 | CC(C)C(=O)N1CCN(c2ccccc2NC(=S)NC(=O)/C=C/c2ccco2)CC1 | -4% | 0%
42 | COc1cccc(OC)c1C(=O)NCCOc1cc(C)cc(C)c1 | -15% | -13%
43 | N/C(=N\OC(=O)c1cc(Cl)ccc1Cl)c1ccncc1 | i | -3%
44 | Oc1c(Cl)cccc1Cc1cc(Cl)cc(Cl)c1O | ? | -26%
45 | Cc1cc(C)c(S(=O)(=O)N2CCOC2CNC(=O)C(=O)NCCN(C)C)c(C)c1 (stereo not drawn) | -16% | -5%

Continued, overlapping the part above by four compounds.
nr | smiles | Vaccinia mCherry | VACV Venus inh
42 | COc1cccc(OC)c1C(=O)NCCOc1cc(C)cc(C)c1 | -15% | -13%
43 | N/C(=N\OC(=O)c1cc(Cl)ccc1Cl)c1ccncc1 | i | -3%
44 | Oc1c(Cl)cccc1Cc1cc(Cl)cc(Cl)c1O | ? | -26%
45 | Cc1cc(C)c(S(=O)(=O)N2CCOC2CNC(=O)C(=O)NCCN(C)C)c(C)c1 (stereo not drawn) | -16% | -5%
46 | CC(=O)c1ccc2c(c1)CC1(C2)Cc2cc3c(cc2C1)C(=O)CC3 (stereo not drawn) | ? | ?
47 | COCCN1C(=O)N[C@@H](c2ccccc2)[C@H](C(C)=O)[C@H]1C | i | -25%
48 | O=C(NCc1ccccn1)C1CCC(=O)N1C1CCCC1 (stereo not drawn) | 27% | -5%
49 | COC(=O)C(Cc1ccc(O)cc1)NC(=O)NC12CC3CC(CC(C3)C1)C2 (stereo not drawn) | -7% | -14%
50 | COCC(=O)Nc1nnc(-c2cccs2)s1 | i | -5%
51 | CC(C)CN(C(=O)CSc1nncn1C)C1CCS(=O)(=O)C1 (stereo not drawn) | i | -14%
52 | COc1ccc(NC(=O)C(c2ccccc2F)n2c(=O)c(-c3cc4ccccc4[nH]3)nc3ccccc32)cc1 (stereo not drawn) | ? | -18%
53 | O=C(COc1ccc2oc3c(c2c1)CCCC3)Nc1ccccn1 | -20% | -14%
54 | O=C1OC(c2ccc(F)cc2)=N/C1=C\c1ccc(Br)o1 | -8% | 1%
55 | Fc1ccc(NCc2cn3ccccc3n2)cc1 | . | -12%
56 | COc1ccc(-c2nnc(S/C(=C/c3ccc(Cl)cc3)C(=O)O)o2)cc1 | -12% | -10%
57 | Cc1ccc(N2C(=O)CSC23C(=O)N(CC(=O)Nc2ccccc2F)c2ccccc23)cc1C (stereo not drawn) | -10% | -10%
58 | CCOC(=O)C1(Cc2ccccc2C(F)(F)F)CCN(C2CCC2)CC1 | -27% | -8%
59 | COC(=O)[C@]1(Cc2ccccc2)N[C@H](CN(C)C(=O)Nc2ccccc2)[C@@H]2C(=O)N(Cc3ccccc3)C(=O)[C@@H]21 | ? | -10%
60 | CC(OC(=O)C1CC(=O)N(Cc2ccccc2)C1)C(=O)Nc1ccccc1[N+](=O)[O-] (stereo not drawn) | i | -13%
61 | N#Cc1ccccc1Cn1c(=O)n(Cc2ccc(C(=O)NCc3ccco3)cc2)c(=O)c2ccccc21 | . | -21%
62 | COc1ccc(NC(=O)c2ccccc2-c2ccccc2C(=O)O)cc1 | -8% | -4%
63 | c1ccc(-n2nnnc2Cc2nnnn2-c2ccccc2)cc1 | i | -8%
64 | O=C(O)c1ccc(S(=O)(=O)N2CCSCC2)cc1 | -15% | -10%
65 | Nc1nc(Nc2cccc(C(F)(F)F)c2)nc(C(F)(F)F)n1 | . | ?
66 | CCc1cccc(N(C(=O)c2csnn2)C(C(=O)NC2CCCCC2)c2ccncc2)c1 (stereo not drawn) | -18% | 4%
67 | CC1CCCCN1C(=O)COC(=O)c1ccc(S(C)(=O)=O)c([N+](=O)[O-])c1 (stereo not drawn) | -17% | -20%
68 | Cc1cc(C)n2nc(C(=O)OCC(=O)c3c[nH]c4ccccc34)nc2n1 | i | -2%
69 | COc1ccc(CN(CC(=O)NC2CCCC2)C(=O)c2csnn2)cc1 | 7% | -3%
70 | CCN(CC)C(=O)c1cccc(C)c1 | 2% | -11%&0%
71 | O=C(NCc1ccc(F)cc1)c1cc(C2CCCN(C(=O)c3ccc4ccccc4c3)C2)on1 (stereo not drawn) | -14% | -25%
72 | CC(CN1CCN(C/C=C/c2ccccc2)CC1)c1ccccc1 (stereo not drawn) | -5% | 7%
73 | O=C(CNC(=O)OCc1ccccc1)NC1CCCCNC1=O (stereo not drawn) | i | -5%
74 | CN(C)S(=O)(=O)c1cccc(N=c2scc(-c3ccc4c(c3)NC(=O)CO4)n2CC2CCCO2)c1 (stereo not drawn) | . | -20%
75 | CC1=C(C(=O)N(C(C)C)C(C)C)CC(CC(=O)NCC2CCCCC2)C(=O)N1Cc1ccccc1 (stereo not drawn) | 9% | -12%
76 | CC(Sc1oc(-c2cccs2)nc1S(=O)(=O)c1ccccc1)c1ccccc1 (stereo not drawn) | -12% | -7%
77 | O=C(CCc1ccc(S(=O)(=O)NCCc2ccccc2)cc1)NCc1ccco1 | . | -18%
78 | O=C(Nc1ccccc1)c1ccc(=O)n(Cc2ccc(F)c(F)c2)c1 | i | -14%
79 | COC(=O)[C@H](CC(C)C)NC(=O)NC1CCCc2ccccc21 (stereo partly drawn) | . | -19%
80 | CCN(CC)C(=O)c1cn(CCC#N)nc1-c1ccc(F)cc1 | -4% | -9%
81 | CCOC(=O)c1c(Nc2nc(C)c(C(=O)NC)s2)sc(C)c1C | . | -26%
82 | NC(CSC1(c2ccc(Cl)cc2)c2ccccc2-c2ccccc21)C(=O)O (stereo not drawn) | -22% | -11%
83 | COc1ccc(S(=O)(=O)NC2(C(F)(F)F)NC(=O)N(CCc3ccccc3)C2=O)cc1 (stereo not drawn) | 2%&3% | 3%&4%
84 | CCCc1cc(C(=O)Nc2ccc(C(=O)c3ccc(C)cc3)cc2)n(C)n1 | -26% | ?
85 | CCC(Sc1nc2ccccc2c2nc(CCn3c(C)nc4ccccc43)nn12)C(=O)Nc1ccc(F)cc1 (stereo not drawn) | -7% | -4%
86 | CCCCN1C(=O)C(CC(=O)NCc2ccco2)CC(C(=O)N(C(C)C)C(C)C)=C1C (stereo not drawn) | i | 8%
87 | Cn1c(O)c(C(=Nc2ccc(F)cc2)c2ccccc2)c(=O)n(C)c1=O | ? | -6%[7.34 µM]
88 | COC(=O)c1cc(S(=O)(=O)N2CCCC2)c(Cl)cc1Cl | i | -16%
89 | COc1ccc(-c2nc3cnccn3c2NCc2ccccc2)cc1SC1CCCCC1 | ? | -21%
90 | CN(C)c1ccc(-c2nn3c(-c4ccccc4Cl)nnc3s2)cc1 | -11% | -22%
91 | CC(C)C(=O)N1CCN(c2ccc([N+](=O)[O-])c(NC(C)c3ccccc3)c2)CC1 (stereo not drawn) | -15% | -25%
92 | CCOC(=O)C1=CN(CC)S(=O)(=O)NC1c1ccccc1 (stereo not drawn) | -29% | -6%
93 | CCCN(CC(=O)Nc1ccccc1OC)C(=O)c1ccc2[nH]c3c(c2c1)CC(C)CC3 (stereo not drawn) | ? | ?
94 | Cn1c(SCC(=O)Nc2ccc(C(N)=O)cc2)nc2c(c1=O)SCC2 | -12% | -1%
95 | COc1ccc(CC(=O)OCC(=O)N(C)C2CCS(=O)(=O)C2)cc1OC (stereo not drawn) | i | -4%
96 | NC(Cc1ccccc1)c1csc(Nc2ccc(C(=O)NCCO)cc2)n1 (stereo not drawn) | -14% | 0%
97 | Cc1ccc(NC(=O)N2CCN(Cc3ccc4c(c3)OCO4)CC2)cc1 | -22% | -19%
98 | CCc1ccc(S(=O)(=O)Nc2cc(-c3cn4ccccc4n3)ccc2C)cc1 | -14% | -13%
99 | O=c1[nH]c(=S)[nH]c2nccnc12 | -23% | -7%
100 | CCCCCCCCCCC[C@@H](C[C@@H]1OC(=O)[C@H]1CCCCCC)OC(=O)[C@H](CC(C)C)NC=O | -5%&-2% | -16%&-16%
101 | CC(C)(C)c1cc(-c2ccccc2)no1 | i | -12%
102 | C=CCNC(=O)c1c(Br)cnn1-c1ccc(C)cc1 | -10% | -7%
103 | COc1ccccc1NC(=O)COC(=O)CCC(=O)c1cccs1 | -9% | -2%
